Source: PubChem
PABP polyA inh: PABP-poly(A) binding inhibition; PABP-poly(A) RNA binding, fluorescence polarization; hit rate 1% among 290,000; inhibition, % at 35 µM; AID 2014;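 active = 50% or more with normal probe brightness, or confirmed in later tests; inconclusive = above 50% with abnormal brightness, or retests that disagree; inactive = below 50% or failed in later tests; about a fifth of its hits are not listed in these tables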;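 also: calls also rest on retests at 20 µM and on dose response follow-up; controls were probe without protein and protein plus probe with vehicle; some compounds called inactive have numbers as strong as hits; many hits fall short of the cut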
Target sequence (P11940 whole entry, looked up): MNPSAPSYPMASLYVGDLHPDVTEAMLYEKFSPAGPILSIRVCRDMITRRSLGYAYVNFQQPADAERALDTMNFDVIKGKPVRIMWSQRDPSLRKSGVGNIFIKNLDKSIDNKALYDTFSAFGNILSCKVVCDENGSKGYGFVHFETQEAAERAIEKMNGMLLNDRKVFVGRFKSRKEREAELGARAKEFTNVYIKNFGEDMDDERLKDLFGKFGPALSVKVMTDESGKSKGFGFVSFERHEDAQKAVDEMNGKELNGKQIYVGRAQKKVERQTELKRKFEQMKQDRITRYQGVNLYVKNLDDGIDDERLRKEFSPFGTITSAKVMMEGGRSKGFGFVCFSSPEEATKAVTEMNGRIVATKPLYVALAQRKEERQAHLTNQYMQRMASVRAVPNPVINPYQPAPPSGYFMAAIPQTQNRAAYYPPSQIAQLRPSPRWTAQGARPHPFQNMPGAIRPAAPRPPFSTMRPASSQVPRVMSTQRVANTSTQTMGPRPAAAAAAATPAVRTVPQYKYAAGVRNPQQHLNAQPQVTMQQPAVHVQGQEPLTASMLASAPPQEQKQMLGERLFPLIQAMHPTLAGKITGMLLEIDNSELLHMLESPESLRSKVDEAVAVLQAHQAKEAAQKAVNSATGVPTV
eIF4H inh: inhibitors of RNA binding by human eIF4H; hit rate 0.94% among 290,000; Q15056; inhibition, % at 35 µM; eIF4H fluorescence polarization binding assay;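 active = 50% or more with normal probe brightness, or confirmed in later tests; inconclusive = above 50% with abnormal brightness, or retests that disagree; inactive = below 50% or failed in later tests; about a fifth of its hits are not listed in these tables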;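 also: calls also rest on retests at 20 µM and on dose response follow-up; 0% = protein and probe with vehicle and 100% = probe without protein; strong numbers were not always called active; many hits fall short of the cut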
MT1-MMP act inh: inhibitors of human MT1-MMP activation | P50281 | HT1080 RFP-PRO-GFP cells, GFP/RFP ratio fluorescence, overnight; percent of plate control window, DMSO zero | GFP/RFP ratio change, % at 20 µM | hit rate 0.061% among 360,000 | AID 651647;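 active = GFP/RFP ratio change of at least 30% with cell ATP level not reduced by more than half and red fluorescence within 50% of control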; also: strong numbers were not always called active
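Material – HT1080 RFP-PRO-GFP cells · Control set – DMSO wells and RFP-L50D-GFP cells · Incubation – overnight cell settling, then overnight compound exposure, 37 °C, 5% CO2 · Compound dosing – single-point 20 µM compound, 1% DMSO · Read-out – GFP/RFP fluorescence ratio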
Rce1 inh: yeast Ras-converting enzyme inhibition | Q03530 | hit rate 0.27% among 290,000 | yeast membranes, quenched prenylated peptide cleavage fluorescence | AID 2563 | calls only;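 active = fall in fluorescence gain of 50% or more versus controls, with final raw signal at or below 3038400; inconclusive = same 50% fall but final raw signal above 3038400; inactive = fall in fluorescence gain under 50%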;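 also: plate controls were neutral control wells for no effect and wells lacking membranes for full effect; tested at 10 µM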
Target sequence (Q03530 whole entry, looked up): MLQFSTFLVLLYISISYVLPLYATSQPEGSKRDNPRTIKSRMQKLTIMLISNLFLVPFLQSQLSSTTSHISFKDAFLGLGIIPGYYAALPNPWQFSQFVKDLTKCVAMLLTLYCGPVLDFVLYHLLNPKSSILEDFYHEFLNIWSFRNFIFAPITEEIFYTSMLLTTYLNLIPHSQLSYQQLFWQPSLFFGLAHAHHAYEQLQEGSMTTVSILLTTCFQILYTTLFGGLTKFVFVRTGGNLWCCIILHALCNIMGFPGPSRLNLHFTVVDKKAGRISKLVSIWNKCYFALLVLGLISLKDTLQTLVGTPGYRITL
Yeast UUG start: alters start codon recognition fidelity in yeast; S. cerevisiae UUG-firefly luciferase reporter, luminescence/redox ratio; hit rate 0.13% among 350,000; AID 602363; activity score, % at 18.7 µM;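 active = replicate mean at a twofold rise or more, about +100% in these data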;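 also: firefly luciferase made from a UUG start codon reports start codon fidelity; reporter light over untreated wells divided by growth signal over untreated wells; some hits fall short of that in this replicate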
CSC inhib: cancer stem cell inhibition; cancer stem cell-like cells viability, luminescence; inhibition, % at 7.5 µM; hit rate 1.1% among 300,000;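 active = mean at 75% or more and at least half the replicates too; inconclusive = mean and replicates disagree; tested in HMLE shEcad cells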;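 also: 0% = median of negative and 100% = median of positive control wells; the first replicate is given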
Env fusion inh: HIV envelope-mediated fusion inhibition | inhibition, % at 12.3 µM | HeLa-JRFL Env/CEM21 cell fusion, luciferase | hit rate 1.1% among 360,000;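 active = mean replicate inhibition score of at least 50 and every replicate individually at or above 50; inconclusive = only one of the two criteria met; inactive = mean below 50 and not all replicates reaching 50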;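 also: 0% = plate neutral controls and 100% = maraviroc near 300 nM; one replicate is shown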
PABP polyA inh retest: second read-out of PABP polyA inh, no call of its own (marks repeat the call); inhibition, %; compound at 20 µM; confirmation repeats;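 mean of two retest wells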
MT1-MMP act inh RFP: recorded beside MT1-MMP act inh, whose call it bears; RFP signal change, %; measured here: RFP expression control read;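 0 = vehicle wells; hits needed this value within 50% of zero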
The depositor's hits bear a star; i = inactive; u = inconclusive; x = not tested or not shown.

Start of the listing, in advance (five entries):
SMILES	PABP polyA inh	eIF4H inh	MT1-MMP act inh	MT1-MMP act inh RFP	Rce1 inh	Yeast UUG start	CSC inhib	Env fusion inh	others
Cn1c(=NC(=O)COc2ccccc2)sc2cc(F)cc(F)c21	1	2	x	x	i	x	-16	x
Cc1cnc(C(=O)OCC(=O)N(Cc2ccccc2)C(C)C)cn1	-2	-6	1	4	i	x	10	9
COc1cccc2cc(C(=O)Nc3ccccc3C)/c(=N/O)oc12	-7	1	1	0	i	-7	23	12
O=C(CCC(=O)Nc1cccc([N+](=O)[O-])c1)NCc1ccccc1	0	-16	0	4	i	-8	2	-7
CCN1C(=O)C(CC(=O)Nc2ccc(F)cc2)N(CCCN2CCN(c3ccc(F)cc3)CC2)C1=S (configuration not stated)	-8	0	5	-12	i	x	105*	-7

The listing (from the top)
SMILES	PABP polyA inh	eIF4H inh	MT1-MMP act inh	MT1-MMP act inh RFP	Rce1 inh	Yeast UUG start	CSC inhib	Env fusion inh	others
Cn1c(=NC(=O)COc2ccccc2)sc2cc(F)cc(F)c21	1	2	x	x	i	x	-16	x
Cc1cnc(C(=O)OCC(=O)N(Cc2ccccc2)C(C)C)cn1	-2	-6	1	4	i	x	10	9
COc1cccc2cc(C(=O)Nc3ccccc3C)/c(=N/O)oc12	-7	1	1	0	i	-7	23	12
O=C(CCC(=O)Nc1cccc([N+](=O)[O-])c1)NCc1ccccc1	0	-16	0	4	i	-8	2	-7
CCN1C(=O)C(CC(=O)Nc2ccc(F)cc2)N(CCCN2CCN(c3ccc(F)cc3)CC2)C1=S (configuration not stated)	-8	0	5	-12	i	x	105*	-7
Cc1ccc2c(c1)N(CC(=O)NC1CCCCC1)C(=O)c1cccnc1O2	6	-14	5	3	i	-26	x	-5
O=C(N[C@@H]1C/C=C\C[C@H](CC(=O)N(CCO)Cc2ccccc2)C(=O)N[C@@H](Cc2ccccc2)COC1=O)OCC1c2ccccc2-c2ccccc21	x	x	-7	-4	x	-4	40	18
CCc1cccc(NC(=O)CCNS(=O)(=O)c2ccc3c(c2)oc(=O)n3C)c1	8	2	-2	-1	i	0	-7	2
COCCN=C1Sc2nc3c(C)cccc3cc2CN1Cc1ccco1	7	4	-2	1	i	-24	8	-20
COc1ccc(CCN2CC(C(=O)N(C)Cc3c(C)n[nH]c3C)CCC2=O)cc1 (configuration not stated)	1	0	1	4	i	-12	x	0
CCOc1ccc(CN2CCCC(N3CCN(c4ccc(OC)cc4)CC3)C2)cc1 (configuration not stated)	-11	-13	5	-8	i	-4	5	6
Cc1cc(-c2ccco2)n(CC(=O)NCc2ccco2)n1	2	1	-1	-3	i	0	-1	13
CCCCSc1ncnc2c1ncn2C1CCCCO1 (configuration not stated)	x	x	-1	-2	x	-32	x	-35
Cc1ccc(N2CC(C(=O)Nc3ccccn3)CC2=O)cc1 (configuration not stated)	11	-8	-5	-1	x	-15	-7	-33
c1ccc2c(c1)[nH]c1ccncc12	x	x	-4	0	i	-24	1	22
COc1ccc(NC(=O)c2cc(C3CC3)nc3c2cnn3C(C)C)cc1OC	x	x	3	-7	x	-9	-6	-25
COc1ccc(-c2nc3ccncc3[nH]2)cc1OC	-2	-2	8	1	i	-12	-5	-189
COc1ccc(NC(=O)/C(=C\c2ccco2)NC(=O)c2ccco2)cc1	5	9	-2	2	i	-18	-16	-8
CCCN(CCC)CCCNC(=O)C1c2cc(OC)c(OC)cc2C(=O)N(C)C1c1cccnc1 (configuration not stated)	6	-1	0	5	i	-12	x	-15
CC1Cc2ccccc2N1C(=O)c1ccnc(C(C)(C)C)c1 (configuration not stated)	-4	7	-5	-5	i	12	-4	22
O=C(O)C(Oc1ccc2cc(-c3ccc(Cl)cc3)c(=O)oc2c1)c1ccccc1 (configuration not stated)	4	5	2	0	i	-8	-2	-3
CC1CCCC(C)N1CCCNC(=O)c1ccc2c(c1)NC(=O)c1ccccc1S2 (configuration not stated)	2	-4	-3	3	i	19	9	u
CCC(C)NC(=O)C1CN(S(=O)(=O)c2ccccc2)CCN1S(=O)(=O)c1ccccc1 (configuration not stated)	-3	6	0	1	i	-1	-3	x
C=CCN1C(=O)C2(OCCCO2)c2c(C)ccc(C)c21	2	-7	1	2	i	-10	-5	10
O=C(Nc1cccc(Cl)c1)c1csc(-c2ccccc2)n1	0	3	1	0	i	-12	10	-20
Cc1c(C(=O)N2CCC(C)CC2)sc2ncnc(N(C)c3ccccc3)c12	-3	-1	-8	-8	i	-15	7	35
COc1cc(OC)cc(-c2c(-c3cccs3)c3cc(-c4ccc5c(c4)OCO5)ccc3n2C)c1	x	x	-5	0	x	8	13	21
COc1c(C)cccc1C(=O)Nc1ccc(N2CCN(C(=O)c3ccccc3C)CC2)cc1	-1	-8	6	-13	i	-1	33	u
CCOc1ccc(/C=N/NC(=O)CN2CCCCC2)cc1OCC	-7	0	-2	1	i	-3	25	-2
Cc1ccccc1-c1n[nH]c(=S)n1/N=C/c1c(C)nn(-c2ccccc2)c1C	-19	-10	2	4	i	-14	32	3
S=c1[nH]nc(-c2ccc3ncccc3c2)n1-c1ccc2c(c1)OCCO2	2	-5	5	4	i	x	-7	1
CC(Sc1nnc(C(C)N(C)C)n1-c1ccc(Cl)cc1)C(=O)Nc1ccc2c(c1)OCO2 (configuration not stated)	4	-7	1	-1	i	-8	-6	x
CC1Nc2ncnc(N3CCN(c4ccccn4)CC3)c2N(Cc2ccccc2)C1=O (configuration not stated)	x	x	9	0	i	-5	18	-21
NS(=O)(=O)c1ccc(CCNC(=O)CSc2cccs2)cc1	-9	2	3	0	i	-17	6	-23
COc1ccc(C(=O)NN(C)c2nc(-c3ccccc3)cc(C)c2S(C)(=O)=O)cc1	2	2	0	-3	i	x	0	x
COc1ccc(C(C)=O)cc1COC(=O)Cn1cnc2ccccc2c1=O	0	-12	0	3	i	-14	21	5
Cc1ccc(S(=O)(=O)N2CCC[C@H]2C(=O)OCCN2C(=O)c3ccccc3C2=O)cc1	x	x	4	0	x	-15	x	-42
O=C(O)c1cc(S(=O)(=O)Nc2ccc3cn[nH]c3c2)ccc1Cl	x	x	10	7	x	-20	-12	x
CCn1nc(NC(=O)c2cccs2)c2cc3ccccc3nc21	1	2	0	-2	i	x	11	-2
O=C(c1sccc1-c1ccccc1)N1CCN(S(=O)(=O)c2ccccc2F)CC1	x	x	0	-3	i	-5	-1	66*
CCOC(=O)C1=CC[C@@H](c2ccccc2)N(S(=O)(=O)c2ccc(C)cc2)[C@H]1c1ccc(CC)cc1	x	x	-6	-23	x	-3	x	44
COc1ccc(-n2nc(N)c3c(=O)oc(N(C)C)nc32)cc1	-1	6	-2	0	i	-7	-10	-33
Cn1c(CNC(=O)c2ccccc2F)nnc1SCCOc1ccccc1	-6	-1	1	3	i	x	11	0
COC1CC(=O)C2OC(c3ccccc3)OCC2O1 (configuration not stated)	x	x	3	5	x	-20	x	0
C[C@H](O)c1[nH]c2cc(F)ccc2c1[C@H](C)O	10	-2	-8	0	i	-3	17	-1
Cc1ccc(S(=O)(=O)CCc2nc3ccccc3s2)cc1	1	-16	1	1	i	9	-6	x
COc1ccc(CN2C(=O)CN=C2Nc2ccc(C)cc2C)cc1	1	-3	0	3	i	8	x	x
CCOC(=O)Nc1nnc(-c2cccc(OC)c2)s1	0	-5	0	-3	i	-4	-2	-32
O=[N+]([O-])c1ccc2c(c1)ncn2CCc1ccccc1	10	1	2	-2	i	-17	-11	3
CN(C)c1oc(COc2ccccc2F)nc1C#N	4	10	2	-6	i	-10	x	-240
O=C1CN(C(=O)COC(=O)/C=C/c2ccc(OC(F)F)cc2)c2ccccc2N1	11	-3	1	-6	i	-10	-2	10
COC(=O)[C@@]1(Cc2ccccc2)[C@H]2C(=O)N(C)C(=O)[C@H]2[C@H]2CN=C(SCc3ccccc3)N21	x	x	-2	0	x	-6	x	-5
Cc1ccc(C)c(NC2=NCC(=O)N2C2CCCCC2)c1	16	-2	-1	4	i	-11	-4	-8
O=C(NC(c1ccc(Cl)cc1)c1cc(Cl)c2cccnc2c1O)c1cccnc1 (configuration not stated)	90*	u	-39	-16	i	-9	113*	32	PABP polyA inh retest=124*
CCOc1ccccc1NC=C1C(=O)OC(C)(C)OC1=O	11	0	2	-5	i	-12	-9	-25
O=C(NC1CC1)c1cccc(Nc2ccc(-c3ccc4c(c3)OCCO4)nn2)c1	2	-7	0	-7	i	1	x	-220
COCCCN1CC(=O)N2C(c3cccc(OC)c3)c3[nH]c4ccccc4c3C[C@H]2C1=O (some centres not stated)	-6	2	2	8	i	18	4	21
CCOC(=O)C1(Cc2ccccc2C(F)(F)F)CCN(Cc2ccc(COC)o2)CC1	9	0	-5	-11	i	2	7	33
COc1cccc(-n2c(=S)sc3c(=O)n(-c4ccccc4C)c(SCC(=O)O)nc32)c1	-5	-8	2	4	i	-12	x	0
COc1ccc(C(C(=O)NC2CCCC2)N(C(=O)c2csnn2)C2CC2)cc1 (configuration not stated)	6	10	-2	3	i	-23	-16	-2
Later entries:
SMILES	PABP polyA inh	eIF4H inh	MT1-MMP act inh	MT1-MMP act inh RFP	Rce1 inh	Yeast UUG start	CSC inhib	Env fusion inh	others
COc1ccc(-c2cc3ccccc3n2CC(O)CN2CCOCC2)cc1 (configuration not stated)	3	-3	1	5	i	7	-6	x
CCCCOc1ccc(C(=O)NCC(=O)NCC(c2ccco2)N2CCCCC2)cc1 (configuration not stated)	x	x	4	3	i	x	-2	-8
COc1ccccc1NC(=O)CSc1ncc(CO)n1Cc1ccc(F)cc1	-3	2	2	0	i	-25	-6	8
Cc1sc2nc(CSc3nc4ccccc4s3)[nH]c(=O)c2c1C	-5	38	x	x	i	x	1	13
CCC(C)NC(=O)C1CCN(C(=O)COc2ccc3c4c(c(=O)oc3c2C)CCCC4)CC1 (configuration not stated)	2	-3	2	-4	i	-14	-2	1
COc1ccc(C(=O)NCCS(=O)(=O)N2CCC3(CC2)OCCO3)cc1	x	x	-5	-3	i	3	-4	-9
CCc1ccc(NC(=O)COc2ccc(Br)cn2)cc1	6	-13	0	4	i	-16	0	2
CC1CCCN(C(=O)C(C)Sc2nc(-c3ccccc3)cc(C(F)(F)F)n2)C1 (configuration not stated)	-5	-6	-5	-9	i	-3	-3	57*
CCC(O)CNC(=O)NC(=C(Cl)Cl)c1ccc(C)c(F)c1 (configuration not stated)	-14	8	0	-4	i	-8	14	24
C[C@@H]1CN([C@@H](C)CO)C(=O)c2cc(NC(=O)c3ccccc3)ccc2O[C@@H](C)CCCCO[C@@H]1CN(C)S(=O)(=O)c1ccc(F)cc1	x	x	-2	-3	x	-1	x	-19
Cc1cc2cc(CCNC(=O)CCCc3ccccc3)c(=O)[nH]c2cc1C	x	x	-3	-2	i	-16	4	20
Cn1cccc1C(=S)N=P(C1CCCCC1)(N1CCOCC1)N1CCOCC1	18	10	1	4	i	-38	-7	x
CCCCNC(=O)C1(NC(=O)Nc2ccccc2)CCCCC1	5	-3	0	1	i	-6	-13	-5
Oc1ccc(Oc2ccc3c(C(F)(F)F)cc(C(F)(F)F)nc3n2)cc1	-2	0	-6	-4	i	-11	2	-307
COc1ccc(N2CC(NS(=O)(=O)c3cccs3)CC2=O)cc1OC (configuration not stated)	x	x	8	0	i	0	-17	2
COc1cc(C(=O)Nc2ccc(NC(=O)c3ccco3)nc2)cc(OC)c1OC	6	0	10	-4	i	-15	-4	5
CCc1ccc2c(c1)c1nnc(NN)nc1n2CC	4	7	10	5	i	-20	7	x
Cc1ccccc1Oc1ccc(S(=O)(=O)NCCC(=O)O)cc1	-8	-3	-18	-6	i	-12	-5	-94
